Source: PubChem (National Center for Advancing Translational Sciences (NCATS))
StopGo FLuc = lowers the firefly signal of an FMDV 2A StopGo reporter. HEK cells with a luciferase reporter of 2A StopGo recoding. Potency, µM (titrated, usually from 57.5 µM), without a hit: top-dose signal change, negative = less light. 120,000 compounds, 0.23% hits. AID 1745856; active = well fitted falling curve with a large enough effect; inconclusive = small, poorly fitted or top-dose-only effect; inactive = no such curve, though single readings can be large or run the other way; note: nearly all actives have a fitted effect of over 60% in size; overnight with compound
StopGo RLuc = FMDV 2A StopGo reporter, Renilla signal. HEK cells with a luciferase reporter of 2A StopGo recoding. Potency, µM (highest dose often 57.5 µM), without a hit: at the top dose signal change, negative = less light. 120,000 compounds, 0.32% hits. AID 1745857; active means well fitted falling curve with a large enough effect; inconclusive means small, poorly fitted or top-dose-only effect; inactive means no such curve, though single readings can be large or run the other way; note: nearly all actives have a fitted effect of over 55% in size; overnight with compound
An asterisk follows results filed as active; ? = inconclusive; & = joins results of further samples; [ ] = dose if it differs, or a comment. % is set by controls: 0 for no effect and ±100 for the full control effect; potency is the fitted concentration of half-maximal effect.

SMILES	StopGo FLuc	StopGo RLuc
Cc1nn(Cc2ccc(F)cc2)c2sc(C(=O)N3CCN(CC(=O)N4CCCC4)CC3)cc12	12.7%	4.0%
CC(NC(=O)c1cc(-c2ccccc2)n[nH]1)c1ccc(F)c(F)c1 (stereo not given)	-2.1%	-1.5%
COC(=O)COc1ccc(-c2nnc(Nc3ccc(O)cc3)c3ccccc23)cc1	46.4%[activator]	58.7%[activator]
O=C(Cn1ncc2c3ccccc3n(Cc3ccccc3)c2c1=O)NCCc1ccc(Cl)cc1	17.1%	8.8%
CC(=O)N(C)c1ccc(NC(=O)c2ccc3c(c2)nc(C)n3-c2ccccc2)cc1	35.0%	40.1%[activator]
COc1ccc(Cc2nc(-c3ccc(Br)o3)no2)cc1	189.6%[activator]	4.0%
CCc1nn2c(NCc3ccccn3)cc(C)nc2c1-c1ccc(Cl)cc1	1.9%	5.7%
COc1cc(C#N)ccc1OCc1csc(-c2ccccc2)n1	55.7%[activator]	11.8%
COc1ccc(NC(=O)CSc2nc3nc(C)c(Cc4ccccc4)c(C)n3n2)cc1OC	-10.7%	-15.4%
CC(C)Cc1cc(C(=O)NCc2ccc(Cl)cc2)no1	12.9%	77.9%[activator]
COc1ccc(N(Cc2cccs2)C(=O)COc2cccc(C)c2C)cc1	4.1%	-6.7%
FC(F)(F)c1ccc(NC(=S)NC2CC2)cc1	73.6%[activator]	105.1%[activator]
CCC(CC)C(=O)Nc1cc(-c2nc3cccnc3s2)ccc1C	3.7%	-1.5%
CCOC(=O)c1c(Nc2cccc(C)c2)nnc(-c2ccccc2)c1-c1ccccc1	3.6%	-2.9%
Cc1ccc(NC(=O)c2ccc(-n3cnc(NC(=O)C(C)C)c3)cc2)cc1C	88.3%[activator]	14.7%
CCCc1ccc(-c2csc(NC(=O)Cn3cnc4c3c(=O)n(C)c(=O)n4C)n2)cc1	35.6%[activator]	-6.3%
Cc1ccc(-n2nc(C)c3nc(CCC(=O)Nc4cccc(F)c4)c(=O)n(C)c32)cc1	10.0%	1.0%
CC(=O)Nc1ccc(CNC(=O)c2nccnc2N)cc1	17.6%	18.4%
CCc1cccc(NC(=O)Cn2nc3ccc(S(=O)(=O)C(C)(C)C)nn3c2=O)c1	-15.8%	-21.5%
Cc1ccc2c(CNC3CCCC3)c(C(=O)O)n(Cc3ccc(F)cc3)c2c1	-13.0%	18.0%
CC(C)c1nn2c(=O)cc(COC(=O)c3ccccc3NC(=O)C3CCCCC3)nc2s1	1.2%	-11.9%
FC(F)(F)c1cc(-c2ccco2)nc2c(-c3cccc(Cl)c3)cnn12	4.2%	-2.5%
Cc1ccc(-c2nc(C(=O)N3CCN(c4ccccc4)CC3)c3n2CCCCC3)cc1	-3.0%	-1.0%
CCOc1ccc(CN(C)C(=O)NC(c2ccc3c(c2)OCCCO3)C(C)C)cc1 (stereo not given)	-15.1%	-6.0%
CC(CCc1ccccc1)NC(=O)c1ccc2c(Cl)c3c(nc2c1)CCC3 (stereo not given)	20.6%	15.4%

Grouped by structure, the entries above containing a CF3 group
SMILES	StopGo FLuc	StopGo RLuc
FC(F)(F)c1ccc(NC(=S)NC2CC2)cc1	73.6%[activator]	105.1%[activator]
FC(F)(F)c1cc(-c2ccco2)nc2c(-c3cccc(Cl)c3)cnn12	4.2%	-2.5%

(cont.)
SMILES	StopGo FLuc	StopGo RLuc
Cc1ccc(N(CC(=O)Nc2ccc(OC(F)(F)F)cc2)S(=O)(=O)c2c(C)noc2C)cc1	?	-14.3%
CCc1ccc2c(c1)c(=O)c(C(=O)c1ccccc1)cn2CC(=O)Nc1ccc(C)c(Cl)c1	-11.0%	-7.8%
O=C(CSc1nc(=O)n(Cc2ccncc2)c2c1CCC2)Nc1cccc(Cl)c1	0.8%	-11.8%
COc1cccc(N2CCN(CCS(=O)(=O)c3ccc(Br)cc3)CC2)c1	15.8%	20.6%
CCOc1ccccc1NC(=O)c1cn(C2CCCCC2)c(=O)c2c1c1ccccc1n2C	0.0%	-12.9%
COc1cccc(CNC(=O)c2ccc(CSc3nc4ccncc4n3Cc3cccc(C)c3)cc2)c1	6.7%	-1.7%
Cc1ccc(Nc2nc(NC3CCCCC3)nc3c2cnn3C)cc1	?	?
CCC(C)NC(=S)NC1CCCCC1 (stereo not given)	14.6%	32.4%[activator]
Cc1ccc(NS(=O)(=O)c2cc([N+](=O)[O-])ccc2N/N=C/c2ccc(N(c3ccccc3)c3ccccc3)cc2)c(C)c1	?	-29.9%
O=C(Nc1cccc2[nH]ccc12)C(=O)N1CCCC1	141.4%[activator]	-2.9%
Cc1ccc(-c2cc(C(=O)N3CCN(C(=O)C4CC4)CC3)c3ccccc3n2)o1	35.5%[activator]	-8.0%
O=S1(=O)c2ccccc2-c2c(nnn2Cc2ccccc2)CN1C1CC1	-11.3%	0.0%
O=C(NCc1cccnc1-n1cccn1)c1cccc(NC(=O)c2cccnc2)c1	22.0%	11.9%
CCN(CC)c1ccc2cc(-c3nnc(Nc4ccc(C)cc4)s3)c(=O)oc2c1	-15.2%	-1.6%
COc1cc(CN(CC2CCCO2)C(=O)COc2ccc(Cl)cc2C)cc(OC)c1OC (stereo not given)	-8.9%	20.0%
O=C1Nc2ccccc2C1CCO (stereo not given)	4.1%	1.4%
CCN(CC)S(=O)(=O)c1ccc(NC(=O)COc2ccc3c(C)cc(=O)oc3c2)cc1	0.0%	42.7%[activator]
COc1ccc(/C=C/C(=O)Nc2cccc(F)c2)cc1	159.7%[activator]	-4.7%
CCOc1ccccc1Oc1c(C)oc2cc(OCC(=O)Nc3ccc(O)cc3C)ccc2c1=O	10.4%	5.1%
Cc1ccc(NC(=O)Nc2nnc(C(C)C)s2)cc1C	131.3%[activator]	-0.6%
O=C(CC1N=C2c3ccccc3N=C(SCc3ccc(F)cc3)N2C1=O)NCCc1ccccc1 (stereo not given)	47.9%[activator]	32.9%[activator]
COc1ccc2c(c1)CC(C(=O)N1CCC(C(N)=O)CC1)CO2 (stereo not given)	-9.0%	-4.1%
COc1cc(/C=C(\C#N)c2nc3ccccc3[nH]2)cc(OC)c1OC	281.9%[activator]	19.6%
CCCCCCCCc1ccc(-c2ccc(C(=O)OC(C)C(=O)OC(C)C)cc2)cc1 (stereo not given)	30.9%[activator]	28.0%
O=C(NCc1coc(-c2cccs2)n1)c1cc(Cl)ccc1Cl	-17.9%	-5.6%
(cont.)
SMILES	StopGo FLuc	StopGo RLuc
O=C1CCCC2=C1C(c1ccc(Cl)cc1Cl)n1nnnc1N2 (stereo not given)	6.7%	-2.5%
CCONC(=O)CCC1Cc2ccccc2NC1=O (stereo not given)	8.6%	4.4%
O=C(O)CCc1ccc(S(=O)(=O)NCc2ccc(F)cc2)cc1	-7.1%	-1.0%
CC(=O)Nc1c(C)nn(-c2ccccc2)c1N1CCC(C(=O)NCc2cccc(F)c2)CC1	-18.5%	-18.0%
CCCC12CN3CC(CCC)(CN(C1)C3c1ccc(OCc3ccccc3)cc1)C2=O (stereo not given)	-8.0%	-7.6%
Cc1c(-c2ccccc2)oc2c(C(=O)OCC(=O)Nc3cccc(F)c3)cccc2c1=O	8.1%	20.8%
Cc1cc(Br)cc(Cl)c1OCC(=O)NCc1cccc(NC(=O)C2CC2)c1	1.0%	48.5%[activator]
CCCCn1nc(C(=O)NCc2ccccc2F)c2ccccc2c1=O	-8.1%	132.1%[activator]
COc1cc(C(=O)NC2(C(F)(F)F)NC(=O)N(c3ccccc3F)C2=O)cc(OC)c1OC (stereo not given)	-7.4%	-0.4%
O=C(OCCOCCO)c1ccccc1Nc1cccc(C(F)(F)F)c1	-10.1%[11.5 µM]	4.5%
Cc1ccc2c(c1)cc(C(=O)NCCN(C)C)n2C	1.0%	-3.5%
Cc1nn(-c2ccc(Cl)nn2)c2c1C(c1ccc(C#N)cc1)CC(=O)N2 (stereo not given)	-9.3%	-3.9%
Cc1ccc(C(=O)COC(=O)c2cc(=O)[nH]c3ccc(C)cc23)cc1	0.0%	113.8%[activator]
O=C(Nc1cccc2cnccc12)c1cccc(S(=O)(=O)N2CCCCCC2)c1	?	?
CCc1ccc(S(=O)(=O)Nc2ccc3[nH]c(=O)sc3c2)cc1	-17.9%	-5.6%
N#Cc1cnn2c(C(F)F)cc(-c3ccc(F)cc3)nc12	11.8%	-2.8%
Cc1ccc(NS(=O)(=O)c2ccc3c(c2)C(C)(C)C(=O)N3)cc1C	-7.1%	239.4%[activator]
CCOC(=O)c1cnc(Nc2ccccc2C)c2ccccc12	2.4%	3.9%
COc1ccc(NC(=O)c2c(NCc3cccc(F)c3)sc3c2CCC3)c(OC)c1	-4.6%	10.6%
O=C(CN1C(=O)S/C(=C\c2ccccc2F)C1=O)Nc1ccc2oc(=O)ccc2c1	-7.9%	-0.4%
CCCN(Cc1cccs1)C(=O)Nc1cc(Cl)c(OC)cc1OC	4.4%&10.7%	44.1%&29.3%[activator]
Cc1nn(-c2cc(N3CCNCC3)ccc2[N+](=O)[O-])c(=O)c2ccccc12	-14.7%	-11.3%
Cc1nc(/N=C(\N)NC(=O)c2ccccc2)nc2ccccc12	146.3%[activator]	2.1%
CCN(C(=O)C(NS(=O)(=O)c1cccc2nsnc12)c1ccccc1)c1ccccc1 (stereo not given)	-4.7%	130.6%[activator]
Cc1nc2ccc(C(=O)NC(C)CCCC(C)C)cc2nc1C (stereo not given)	128.2%[activator]	84.0%[activator]

Part of the list above, reformatted:
Compound,StopGo FLuc,StopGo RLuc
N#Cc1cnn2c(C(F)F)cc(-c3ccc(F)cc3)nc12,11.8%,-2.8%
O=C(Nc1cccc2cnccc12)c1cccc(S(=O)(=O)N2CCCCCC2)c1,?,?

Continued.
SMILES	StopGo FLuc	StopGo RLuc
Cc1ccc(-c2nnc(SCc3ncc(-c4ccccc4)o3)o2)cc1	0.0%	-0.8%
CCCN1CC(=O)N2[C@H](C[C@@]3(n4ccc5ccccc54)c4ccccc4N(S(=O)(=O)c4ccccc4)[C@@H]23)C1=O	-1.8%	0.0%
Cc1cc(NC(=O)CCc2nc3cccnc3n2Cc2cccs2)ccc1Br	-17.9%	-5.5%
O=C(COC(=O)C12CC3CC(CC(Cl)(C3)C1)C2)NC(=O)c1cccc([N+](=O)[O-])c1	19.6%	-5.5%
CCC(=O)Oc1ccc2c(=O)c(-c3ccc(OC)cc3)c(C)oc2c1	83.5%[activator]	-7.8%
COc1ccc(-c2onc(C)c2C)cc1S(=O)(=O)N1CCC(C)CC1	-30.8%	100.9%[activator]
CCc1ccc(NC(=O)CN(C)S(=O)(=O)c2ccc3c(c2)c(=O)n(C)c(=O)n3C)cc1	0.0%	-13.7%
CCOc1ccccc1Oc1coc2cc(OCc3ccc(OC)cc3)ccc2c1=O	3.9%	18.2%
COc1ccc(CNCc2c(C(=O)O)n(Cc3ccc(F)cc3)c3cc(C)ccc23)cc1OC	-14.2%	-4.6%
O=C(NCCc1nc2ccccc2n1CCCOc1ccc(Cl)cc1)C1CCCCC1	?	-9.3%
O=C(/C=C/c1cccc(Cl)c1Cl)c1ccccc1OC(F)F	6.0%	-2.8%
CC(C)Cn1c(-c2ccc(C#N)cc2)nc2c1c(=O)[nH]c(=O)n2CC(C)C	-6.3%	-7.9%
CNc1c(NC(=O)Nc2ccc(Br)cc2F)c(=O)oc2ccccc12	5.1%	-5.3%

Record cards, as listed above.
Shown for `Cc1ccc(NS(=O)(=O)c2cc([N+](=O)[O-])ccc2N/N=C/c2ccc(N(c3ccccc3)c3ccccc3)cc2)c(C)c1` : StopGo FLuc = ?; StopGo RLuc = -29.9%
Shown for `Cc1ccc(NS(=O)(=O)c2ccc3c(c2)C(C)(C)C(=O)N3)cc1C` : StopGo FLuc = -7.1%; StopGo RLuc = 239.4%[activator]

Exported comma-delimited: part of the list above
mol,StopGo FLuc,StopGo RLuc
Cc1cc(NC(=O)CCc2nc3cccnc3n2Cc2cccs2)ccc1Br,-17.9%,-5.5%
O=C(/C=C/c1cccc(Cl)c1Cl)c1ccccc1OC(F)F,6.0%,-2.8%
COc1ccc(CNCc2c(C(=O)O)n(Cc3ccc(F)cc3)c3cc(C)ccc23)cc1OC,-14.2%,-4.6%
CCC(=O)Oc1ccc2c(=O)c(-c3ccc(OC)cc3)c(C)oc2c1,83.5%[activator],-7.8%
Cc1ccc(-c2nnc(SCc3ncc(-c4ccccc4)o3)o2)cc1,0.0%,-0.8%
CC(C)Cn1c(-c2ccc(C#N)cc2)nc2c1c(=O)[nH]c(=O)n2CC(C)C,-6.3%,-7.9%

Rows were taken by chance. About 0.53% of those tested had a hit in this group.
